Screening results deposited in PubChem by several laboratories.
MT1-MMP reporter – inhibitors of MT1-MMP promoter transcription, cell-based, luciferase reporter, luminescence (AID 618). calls from a first round at 10 µM; hits with a dose series show EC50 in µM. hit rate 0.62% among 87,000. MT1-MMP promoter luciferase reporter cells, luminescence;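 active = over half of the reporter light lost at 10 µM or EC50 under 50 µM; inactive = the rest and hits that failed the dose series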;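 note: actives suppress MT1-MMP promoter-driven transcription so potencies describe inhibitors; HT1080 fibrosarcoma cells; overnight exposure; toxic or luciferase-blocking compounds were not removed from the actives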
Hsc70 ATP site – Hsc70 inhibitors, probe displacement, primary screen, biochemical, fluorescence polarization (AID 568) | 83,000 tested, under 10 active | Heat shock cognate 71 kDa protein (Homo sapiens) | Hsc70 fluorescence polarization, probe displacement; higher % means a stronger effect; strong numbers were not always called active | displacement, % at 20 µM; hits with a dose series show IC50 in µM;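 active = displacement above 50% without optical interference and an IC50 on retest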;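 note: ATPase domain with a fluorescein-tagged ATP probe; 0% = vehicle and 100% = excess ADP; read after one hour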
WNV protease inh – inhibitors of WNV NS2B-NS3 protease, primary screen, biochemical, fluorogenic substrate. Genome polyprotein (West Nile virus), P06935. fluorogenic substrate Ex360/Em465; active compounds read low. z-score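 (tested at a level between 10 and 100 µM)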. hit rate 0.18% among 65,000. AID 577, 2007;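 active = z-score at -3 or under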;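 note: score is relative to mean and spread of the compound wells of a plate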
Target sequence (P06935 1371-1501 limits assumed): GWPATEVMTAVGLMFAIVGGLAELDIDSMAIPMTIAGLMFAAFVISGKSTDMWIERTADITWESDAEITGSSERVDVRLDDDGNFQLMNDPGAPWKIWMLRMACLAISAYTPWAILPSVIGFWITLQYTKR
Target sequence (P06935 1502-1679 limits assumed): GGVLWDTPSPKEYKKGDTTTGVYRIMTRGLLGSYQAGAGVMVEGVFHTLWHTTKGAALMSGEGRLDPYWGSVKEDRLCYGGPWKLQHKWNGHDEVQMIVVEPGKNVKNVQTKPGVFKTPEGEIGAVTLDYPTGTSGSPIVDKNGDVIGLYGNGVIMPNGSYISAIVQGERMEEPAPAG
The depositor's hits bear a star; i = inactive; nt = no result given.

SMILES | MT1-MMP reporter | Hsc70 ATP site | WNV protease inh
CCOC(=O)c1c(-c2ccco2)csc1N | i | -2.4% | 1.5
Cc1csc(NC(=O)CSc2nnc(-c3ccc(Cl)cc3)n2N)n1 | i | 4.0% | nt
CCCSc1nc(C)c(C(C)=O)cc1C#N | i | -2.2% | nt
CCCOc1ccc(C(O)(CCC)CCN2CCCCC2)cc1 (stereo unspecified) | i | 1.2% | nt
CCOc1cc(C)c(Cl)cc1S(=O)(=O)N(C)C | i | 4.0% | -0.55
COC(=O)Nc1nnc(Cc2ccccc2)s1 | i | -5.3% | 0.68
Cc1cc(C)c(C#N)c(SCc2ccc3c(c2)OCO3)n1 | i | 1.8% | -0.27
CCCCCCOc1ccc(N2C(=O)CC(NCCc3ccc(S(N)(=O)=O)cc3)C2=O)cc1 (stereo unspecified) | i | 0.8% | nt
Fc1ccc(-n2c(-c3ccco3)nc3nc4ccccc4nc32)cc1 | i | 3.2% | -0.09
O=C(C1CC(c2ccc(F)cc2)=NO1)N1CCN(c2ccccc2)CC1 (stereo unspecified) | i | 1.9% | -0.46
Cc1ccc(-n2nnc3c(SCC(=O)NCc4ccco4)ncnc32)cc1 | i | 0.6% | 0.64
COc1ccccc1NC(=O)C(C)NS(=O)(=O)c1ccc(Cl)cc1 (stereo unspecified) | i | -3.7% | 2.2
O=S(=O)(Nc1ncnc2sc3c(c12)CCC3)c1ccc(Cl)s1 | i | -27% | 0.15
O=C(C1CC1)n1cc(C(=S)N2CCOCC2)c2ccccc21 | i | 0.0% | 0.09
c1ccc(-n2c(SCC3CCCCO3)nnc2-c2cnccn2)cc1 (stereo unspecified) | i | 3.0% | 0.2
O=C(O)c1ccc2c(c1)C(=O)N(C(Cc1ccc(O)cc1)C(=O)O)C2=O (stereo unspecified) | i | -1.3% | -0.87
CCOc1ccccc1NC(=O)CN(C)S(=O)(=O)c1ccc(OC)c(C)c1 | i | 9.9% | -1.5
Cc1cc(C)nc(/N=C(\N)C2=C(O)CC(C)(C)CC2=O)n1 | i | 0.4% | -0.36
Nc1nc(Nc2cccc(F)c2)nc2ccccc12 | i | 4.1% | 0.78
Cc1ccccc1Cn1c(=N)n(CC(O)c2ccco2)c2ccccc21 (stereo unspecified) | i | -2.6% | 0.78

Gathered by group, those above containing fluorine
SMILES | MT1-MMP reporter | Hsc70 ATP site | WNV protease inh
Fc1ccc(-n2c(-c3ccco3)nc3nc4ccccc4nc32)cc1 | i | 3.2% | -0.09
O=C(C1CC(c2ccc(F)cc2)=NO1)N1CCN(c2ccccc2)CC1 (stereo unspecified) | i | 1.9% | -0.46
Nc1nc(Nc2cccc(F)c2)nc2ccccc12 | i | 4.1% | 0.78

Further structures:
SMILES | MT1-MMP reporter | Hsc70 ATP site | WNV protease inh
CC(C)(C)C1(c2ccccc2)NC(=O)N(CC(=O)N2CCOCC2)C1=O (stereo unspecified) | i | 1.1% | -0.56
COCCNS(=O)(=O)c1ccccc1 | i | 7.4% | nt
Cc1cc(N2CCN(C(=O)c3ccco3)CC2)n2nc(C)c(-c3ccccc3)c2n1 | i | 3.1% | -0.95
CN(Cc1ccccc1)S(=O)(=O)c1ccc(NS(=O)(=O)Cc2ccccc2)cc1 | i | -6.1% | nt
O=C(NCc1cccs1)c1nc2c(nnn2Cc2ccccc2Cl)c(=O)[nH]1 | i | 1.7% | -0.87
C=CCOc1ccc(C2C(C(=O)c3ccco3)=C(O)C(=O)N2Cc2cccnc2)cc1 (stereo unspecified) | i | 3.0% | 0.63
COCCn1c(SCC(=O)N2CCN(c3ccccc3)CC2)nc2c(c1=O)SC(C)C2 (stereo unspecified) | i | -0.4% | 2.1
CC(C)(C)c1cccc(OCCCSc2ncccn2)c1 | i | -1.2% | nt
COc1cc2nc(-c3ccccc3)nc(N3CCCC3)c2cc1OC | i | -4.8% | 1.1
Cc1ccc2nc(C(=O)O)c(C(=O)O)nc2c1 | i | -0.1% | nt
O=C(O)c1c2c(nc3ccc(F)cc13)CCC2 | i | 1.2% | nt
Cc1cccc(-n2c(N)cc(=O)nc2SC(C)C(=O)NC2CCCCC2)c1 (stereo unspecified) | i | -5.2% | -0.09
C=CCC(C#Cc1ccccc1)[N+](C)(C)CC=C (stereo unspecified) | i | 1.7% | nt
Cc1ccc(C)c(C(=O)CSc2n[nH]c(C)n2)c1 | i | 3.3% | 0.99
CCN1CCN(Cc2ccc(NC(=O)Nc3cccs3)cc2)CC1 | i | 9.0% | 0.99
O=C(c1ccc(F)cc1)C1CCN(C(=O)Nc2ccc(F)cc2)CC1 | i | 6.5% | nt
S=c1nc(-c2ccc(Br)cc2)oc2c1CCCC2 | i | -4.2% | nt
CC(C)OCCCNS(=O)(=O)c1ccc2ccccc2c1 | i | -1.6% | nt
Fc1ccccc1C(c1nnnn1Cc1ccc2c(c1)OCO2)N1CCN(Cc2ccccc2)CC1 (stereo unspecified) | i | -0.7% | 1.4
CCOC(=O)N1CCN(S(=O)(=O)c2cc(OCC)ccc2OCC)CC1 | i | -1.4% | 0.7

Compound profiles (already shown). Values in the order: MT1-MMP reporter	Hsc70 ATP site	WNV protease inh
O=C(NCc1cccs1)c1nc2c(nnn2Cc2ccccc2Cl)c(=O)[nH]1 is listed as i	1.7%	-0.87
O=C(O)c1c2c(nc3ccc(F)cc13)CCC2 is listed as i	1.2%	nt

Further entries
SMILES | MT1-MMP reporter | Hsc70 ATP site | WNV protease inh
Cn1c(=O)c2c(nc(CN3CCN(CCO)CC3)n2Cc2cccc3ccccc23)n(C)c1=O | i | 5.7% | 0.95
CCN(CC)CCN1C(=O)C(O)=C(C(=O)c2ccc(C)o2)C1c1ccccn1 (stereo unspecified) | i | 7.9% | -0.69
CC(C)C1Oc2ccccc2N(CC(=O)N(Cc2ccccn2)CC2CCCO2)C1=O (stereo unspecified) | i | -4.1% | 0.32
COc1ccc(NC(=O)CN(c2cc(C)cc(C)c2)S(=O)(=O)c2c(C)n[nH]c2C)cc1 | i | 9.4% | -0.83
c1ccc2c(N3CCOCC3)nc(-c3ccncc3)nc2c1 | i | 7.9% | nt
Cc1nnc(NC(=O)CSc2nnc(C)n2Cc2ccccc2)s1 | i | 6.3% | nt
Cc1ccc2nc(NC3=NCN(Cc4ccco4)CN3)nc(C)c2c1 | i | 2.2% | 1.7
Cc1cc(/C=N/n2cnnc2)c(C)n1-c1ccc(OCc2ccccc2F)cc1 | i | -1.9% | 0.63
Cc1onc(-c2ccccc2)c1C(=O)Nc1ccccc1C#N | i | -2.2% | -1.8
CCN(CC)S(=O)(=O)c1ccc2oc(C(=O)NCCCN3CCOCC3)c(C)c2c1 | i | 0.6% | nt
Cc1nn(C)cc1CNC(=O)c1cnn2c1NC(c1ccc(Br)cc1)CC2C(F)(F)F (stereo unspecified) | i | 8.3% | 0.04
Cc1ccc2c(C)nc(Nc3nc(CSc4nnnn4-c4ccccc4)cc(=O)[nH]3)nc2c1 | i | -13% | -0.35
N#CC(C(=O)Nc1ccc(Cl)c(Cl)c1)=C1Nc2ccccc2N1 | i | -1.7% | -0.41
O=C(c1cccc(F)c1)N1C2C=CC(C2)C1(C(F)(F)F)C(F)(F)F (stereo unspecified) | i | 0.5% | 0.31
CCOc1cc(C(N)=O)cc(OCC)c1OCC | i | -5.1% | 1.5
Cc1ccc2c(c1)[C@@H]1CN(C)CC[C@@H]1N2S(=O)(=O)c1ccc([N+](=O)[O-])cc1 | i | -0.2% | nt
CCOC(=O)C1CCN(CC(O)COc2ccc(C(C)(C)CC)cc2)CC1 (stereo unspecified) | i | -0.1% | 0.25
CC1CCCCN1CCNC(=O)C1CCN(S(=O)(=O)c2cccc3cccnc23)CC1 (stereo unspecified) | i | 8.3% | -0.34
CCOc1ccc(C(=O)Nc2nncs2)cc1OCC | i | -4.8% | -0.23
CCc1cc2c(=O)c(-c3nc4ccccc4n3C)c(C)oc2c(CN(CC)CC)c1O | i | 4.1% | nt
CCC(=O)Nc1nc2ccccc2n1Cc1ccc(C)cc1 | i | -0.5% | -0.65
O=C(Nc1ccc(Cl)cc1)N(Cc1cccs1)Cc1cccs1 | i | 0.7% | -0.92
O=C(c1cn(-c2ccccc2)nc1-c1cccs1)N1CCN(c2ccc(F)cc2)CC1 | i | -8.7% | nt
Cn1c(=O)oc2cc(S(=O)(=O)N3CCc4ccccc4C3)ccc21 | i | 5.4% | 0.49
Cc1ccccc1CN1CCCNC1=O | i | -3.0% | 1.1
CCCSC1=C(C#N)C(c2ccccc2C)CC(=O)N1 (stereo unspecified) | i | 1.0% | 0.57
COc1ccc(NC(=O)c2ccccc2C)c(OC)c1 | i | 0.6% | -0.53
Cc1cccc(-c2noc(CCCC(=O)N3CCOCC3)n2)c1 | i | -2.3% | nt
CC(C)OC(=O)CSc1ncnc2c1cnn2Cc1ccccc1 | i | 5.3% | 1.6
Cc1oc2c(C)c3oc(=O)c4c(c3cc2c1C)CCC4 | i | -0.9% | -2.3
CCCCCCSc1nsc(N)n1 | i | -1.4% | nt
CCCN1/C(=C(/C#N)C2=NS(=O)(=O)c3ccccc32)N(C)c2ccccc21 | i | -3.2% | -0.27
Cc1nc(NS(=O)(=O)c2ccccc2C)c2c3c(sc2n1)CCC3 | i | 0.6% | nt
Cc1ccc2c(c1)c(C)c(C)n2CC(O)Cn1nc(C)c(Br)c1C (stereo unspecified) | i | 0.6% | 0.37
CS(=O)(=O)N(CC(=O)N1CCCCC1)c1ccc(Cl)c(C(F)(F)F)c1 | i | 0.2% | nt
CCC(Sc1nnnn1-c1ccccc1)C(=O)NC(C)c1ccccc1 (stereo unspecified) | i | 6.1% | -0.54
Cc1cc(NC(=O)c2ccc3nc(-c4ccccc4)c(-c4ccccc4)nc3c2)no1 | i | 2.2% | -0.34
Cc1cccc(OCc2nnc(SCc3cc(=O)n4cc(Br)ccc4n3)o2)c1 | i | -2.7% | -0.58
COc1ccc(-c2noc(-c3ccccc3F)n2)cc1 | i | 5.9% | -0.01
O=C(CCn1nc(-c2ccc(Cl)cc2)c2ccccc2c1=O)NCCN1CCOCC1 | i | 6.0% | nt
CCN(CC)S(=O)(=O)c1ccc2[nH]cc(C(=O)NCCN3CCCCCC3)c(=O)c2c1 | i | -4.1% | 1.7
O=C(CN(Cc1ccco1)C(=O)c1cc(=O)[nH]c2ccccc12)Nc1ccccc1Br | i | -0.6% | -0.31
Cn1ncc(Br)c1C(=O)OCC(=O)Nc1nc(-c2ccccc2)cs1 | i | -0.2% | nt
Cc1noc(C)c1C(=O)N1CCN(Cc2ccccc2)CC1 | i | 1.2% | nt
CCC(Sc1nnnn1-c1ccccc1)C(=O)Nc1nc2ccccc2s1 (stereo unspecified) | i | -7.3% | nt
CCOC(=O)C(C)Sc1ncnc2c1nnn2-c1ccc(F)cc1 (stereo unspecified) | i | 2.1% | 0.75
Cc1cc(C(=O)COC(=O)Cn2cnc3c2c(=O)n(C)c(=O)n3C)c(C)n1C | i | 0.8% | -0.2
CCOC(=O)c1ccc(N2Cc3ccccc3C2)cc1O | i | -13% | -0.04
O=C(CCCn1c(=S)[nH]c2ccccc2c1=O)N1CCCCC1 | i | 1.9% | 1.2
O=C(CN1CCC(n2nnc3cc(F)ccc32)CC1)NCCc1ccccc1 | i | -0.2% | nt
O=C(Cc1ccc(Cl)cc1)Nc1ccccc1CO | i | 2.7% | 0.29
Cn1c(=O)cc(OCCCC(=O)N2CCCCC2)c2ccccc21 | i | 4.7% | -0.83
CCc1nc2ccccc2c(C(=O)OCC(=O)Nc2cccc(S(=O)(=O)N3CCOCC3)c2)c1C | i | 0.6% | nt
CCOC(=O)N1CCN(CCC(=O)Nc2ccc(OC(F)(F)F)cc2)CC1 | i | 1.5% | 1.3
CC(=O)c1cc2c(cc1NC(=O)CSc1nnc(C)s1)OCO2 | i | -0.2% | -0.5
Fc1ccc(-c2nc3nc4ccccc4nc3n2Cc2ccco2)cc1 | i | 1.3% | -0.91
c1ccc2c(CCNc3ncnc4nc[nH]c34)cccc2c1 | i | -0.2% | nt
O=C(NC1CCCCCC1)C1CCCN(S(=O)(=O)c2cccs2)C1 (stereo unspecified) | i | 2.8% | 1.2
CCNC(=O)C1CCN(S(=O)(=O)c2ccc(F)cc2)CC1 | i | 0.1% | -1.1
CSCCC(NS(=O)(=O)c1ccc(Cl)cc1)C(=O)OCC(=O)N1CCOCC1 (stereo unspecified) | i | 2.5% | 1.8

Sorted by formula weight (smallest number first): part of the list above.
SMILES | MT1-MMP reporter | Hsc70 ATP site | WNV protease inh
Cc1ccccc1CN1CCCNC1=O | i | -3.0% | 1.1
C=CCC(C#Cc1ccccc1)[N+](C)(C)CC=C (stereo unspecified) | i | 1.7% | nt
Cc1cccc(-n2c(N)cc(=O)nc2SC(C)C(=O)NC2CCCCC2)c1 (stereo unspecified) | i | -5.2% | -0.09

New compounds follow:
SMILES | MT1-MMP reporter | Hsc70 ATP site | WNV protease inh
O=C(c1ccccc1S(=O)(=O)NCc1ccccc1)N1CCCCC1 | i | -2.2% | -1.7
COc1ccc(-c2nnc3sc(-c4ccco4)nn23)cc1OC | i | -2.6% | -0.62
CCN(CC)CCCN(C(C)=O)c1nc(-c2cc(OC)ccc2OC)cs1 | i | 2.0% | -0.01
O=C(Cc1cccs1)Nc1nnc(SCC(=O)N2CCCCC2)s1 | i | -6.9% | -0.02
O=C(CCCCCN1C(=O)c2ccccc2C1=O)Nc1ccc(S(=O)(=O)N2CCCCC2)cc1 | i | -0.3% | -1.1
